# Screening data as filed in PubChem.
# FEN1 inhibitor – inhibitors of human flap endonuclease 1. P39748. Recombinant FEN1 flap cleavage, fluorescence, 15 min. Potency, µM (titrated, usually from 114 µM), without a hit: top-dose activity change, negative = inhibition, actives largely listed as inhibitors. 390,000 tested, 0.35% active. AID 588795; note: nearly all actives have a fitted effect of over 65% in size
#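 With each library titrated from low to high concentration, compounds met 10 nM FEN1 for 15 min at room temperature before 50 nM substrate was added; readings at 0 and 15 min fed four-parameter Hill curve fits.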
# GCN5L2 inh – inhibitors of human GCN5L2 histone acetyltransferase; GCN5L2 HAT assay, ThioGlo1 CoA-SH fluorescence; 390,000 tested, 0.21% active; Potency, µM (doses to about 58.9 µM), without a hit: top-dose activity change, negative = inhibition, actives largely listed as inhibitors; AID 504327
# Target sequence (Q92830 whole entry, looked up): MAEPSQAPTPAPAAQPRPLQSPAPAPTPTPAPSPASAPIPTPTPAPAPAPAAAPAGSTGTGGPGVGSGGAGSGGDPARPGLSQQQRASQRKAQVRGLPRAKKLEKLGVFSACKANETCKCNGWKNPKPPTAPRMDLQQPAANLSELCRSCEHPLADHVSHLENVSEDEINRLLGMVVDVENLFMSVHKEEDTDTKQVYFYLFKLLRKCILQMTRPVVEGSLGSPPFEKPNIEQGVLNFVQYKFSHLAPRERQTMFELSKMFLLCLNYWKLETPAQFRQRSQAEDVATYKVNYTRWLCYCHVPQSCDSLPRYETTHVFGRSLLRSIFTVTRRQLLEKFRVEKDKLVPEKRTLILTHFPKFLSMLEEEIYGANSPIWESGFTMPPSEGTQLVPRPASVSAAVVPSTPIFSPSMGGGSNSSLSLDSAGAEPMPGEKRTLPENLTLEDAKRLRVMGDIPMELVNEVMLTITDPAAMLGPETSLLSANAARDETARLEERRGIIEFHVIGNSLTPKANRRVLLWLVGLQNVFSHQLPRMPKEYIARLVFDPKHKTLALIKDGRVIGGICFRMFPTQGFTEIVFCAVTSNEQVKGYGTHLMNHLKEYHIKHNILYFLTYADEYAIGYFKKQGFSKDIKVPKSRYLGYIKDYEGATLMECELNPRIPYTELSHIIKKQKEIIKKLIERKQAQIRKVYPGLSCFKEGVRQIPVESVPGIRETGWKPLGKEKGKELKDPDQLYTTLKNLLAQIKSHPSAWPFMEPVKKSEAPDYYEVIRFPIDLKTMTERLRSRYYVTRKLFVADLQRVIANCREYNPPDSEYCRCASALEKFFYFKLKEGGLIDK
#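 Free CoA generated was detected with ThioGlo1 (50uM) fluorescence at Ex340nm/Em540nm, read immediately and after 20 min at room temperature. Enzyme, 20 nM in HEPES pH 7.5 buffer, saw compounds 15 min before adding 75uM H3(1-25) peptide and 70uM acetyl-CoA.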
# * hit, by the source's call; ? = inconclusive; . = no result given; & = joins results of further samples; [ ] = remark or other dose. Calls come from the whole dose curve; as a rule, active = well fitted curve in the direction sought with a large enough effect; inconclusive = small, poorly fitted or top-dose-only effect, or another doubt; inactive = no such curve, though single readings can be large; an effect the other way counts as inactive or inconclusive. % is set by controls: 0 for no effect and ±100 for the full control effect; potency is the fitted concentration of half-maximal effect.
SMILES	FEN1 inhibitor	GCN5L2 inh
O=C1NCCCC1C(=O)N1CCCCC1 (configuration not stated)	10%	-2%
CCCOc1ccc(C(=O)CCN2CCCCC2)cc1	-2%	-3%
COc1ccc(NC(=O)C2CCC(CNS(=O)(=O)c3cccs3)CC2)cc1 (configuration not stated)	11%	1%
NS(=O)(=O)c1ccc(O)c(NC(=O)c2ccc([N+](=O)[O-])cc2)c1	13%	-3%
NS(=O)(=O)c1cc2c(cc1Cl)N[C@H](Cc1ccccc1)NS2(=O)=O	.	-7%
CCOC(=O)CCCCCC(=O)Nc1ccc2c(c1)C(=O)N([C@H](C)CO)C[C@@H](C)[C@H](CN(C)Cc1ccc3c(c1)OCO3)O2	-9%	-1%
O=C(Nc1cccc(Cl)c1Cl)c1cc(S(=O)(=O)N2CCCc3ccccc32)ccc1F	-1%	-14%
COc1ccc(CCNC(=O)c2ccc3c(c2)N(Cc2ccccc2)CCS3)cc1OC	7%&-13%	?
O=[N+]([O-])c1cc2c(cc1/C=N/NS(=O)(=O)c1ccc(Br)cc1)OCO2	50µM*	-11%
C/C(Cc1ccccc1)=N\NC(=O)CNC(=O)c1cccc(F)c1	-10%	-4%
CCOC(=O)c1c(NC(=O)CCCN2CCOCC2)sc2c1CC(C)(C)OC2	-5%	-9%
CCN(CC)CCCN1CC(O)=C(c2nc3ccccc3s2)C1=N	-6%	-5%
N=C(N)c1ccc(N)cc1	18%	-3%&-7%
COc1ccc(C(=O)NCc2cccnc2)cc1S(=O)(=O)N1CCOCC1	6%	-4%
CC(=O)/C=C(\C)Nc1ccccc1O	-15%	-1%

# Sorted by heavy-atom count (smallest number first): part of the list above
SMILES	FEN1 inhibitor	GCN5L2 inh
NS(=O)(=O)c1ccc(O)c(NC(=O)c2ccc([N+](=O)[O-])cc2)c1	13%	-3%
C/C(Cc1ccccc1)=N\NC(=O)CNC(=O)c1cccc(F)c1	-10%	-4%
COc1ccc(C(=O)NCc2cccnc2)cc1S(=O)(=O)N1CCOCC1	6%	-4%
COc1ccc(CCNC(=O)c2ccc3c(c2)N(Cc2ccccc2)CCS3)cc1OC	7%&-13%	?

# Laid out differently: entries from further up
mol: O=[N+]([O-])c1cc2c(cc1/C=N/NS(=O)(=O)c1ccc(Br)cc1)OCO2
  FEN1 inhibitor: 50µM*
  GCN5L2 inh: -11%
mol: C/C(Cc1ccccc1)=N\NC(=O)CNC(=O)c1cccc(F)c1
  FEN1 inhibitor: -10%
  GCN5L2 inh: -4%
mol: CCOC(=O)c1c(NC(=O)CCCN2CCOCC2)sc2c1CC(C)(C)OC2
  FEN1 inhibitor: -5%
  GCN5L2 inh: -9%
mol: CCN(CC)CCCN1CC(O)=C(c2nc3ccccc3s2)C1=N
  FEN1 inhibitor: -6%
  GCN5L2 inh: -5%

# Back to the main list with the 2 entries that preceded the break.
SMILES	FEN1 inhibitor	GCN5L2 inh
COc1ccc(C(=O)NCc2cccnc2)cc1S(=O)(=O)N1CCOCC1	6%	-4%
CC(=O)/C=C(\C)Nc1ccccc1O	-15%	-1%
c1ccc(CC2CNc3ccccc3CN2)cc1 (configuration not stated)	-3%	-9%
CN(Cc1ccccc1)S(=O)(=O)c1ccc2[nH]cc(C(=O)NCC3CCCO3)c(=O)c2c1 (configuration not stated)	9%	7%
C=CC[C@H](CC(=O)NCCO)C(=O)N[C@@H](COC(=O)[C@@H](CC=C)CC(=O)OC(C)(C)C)Cc1c[nH]c2ccccc12	17%	1%
Cc1ccc(NC(=O)C(OC(=O)c2ccc(F)cc2)c2ccccc2)cc1Cl (configuration not stated)	5%	4%
CN(c1cccc(NC(=O)CN(c2cccc(Cl)c2)S(=O)(=O)c2ccccc2)c1)S(C)(=O)=O	-22%	-8%
CCCc1cc(=O)[nH]c(=S)[nH]1	16%	-2%
CC(C)(C)NC(=O)c1ccc2nc(CCc3ccccc3)oc2c1	-17%	2%
CN(CC(=O)NCCc1ccc(F)cc1)CC(=O)Nc1ccc(F)c(F)c1F	-3%	-7%
Cc1ccc(-n2cc(CNCCN3CCOC3=O)c(-c3cccc(C)c3)n2)cc1	5%	9%
Cc1cccc(N2CCN(C(=O)c3ccc(NC(=O)CC4SC(N5CCCC5)=NC4=O)cc3)CC2)c1C (configuration not stated)	-17%	-5%
CCn1c(NC(=O)c2ccccc2)nc2ccccc21	-14%	-1%
Cc1ccc(-c2[nH]nc3c2C(C)C(C#N)=C(N)O3)cc1 (configuration not stated)	-4%	-3%
O=C(Nc1ncc2c(n1)-c1ccccc1CC2)c1cccc(Cl)c1	-12%	3.2µM*
CCOc1ccc(-n2nnnc2-c2nc3ccccc3s2)cc1	-1%	-6%
Cc1ccc(N(C(=O)C2CCCC2)C2C=CS(=O)(=O)C2)cc1 (configuration not stated)	-12%	-19%
CSCC(=O)N1CCCC(N2CCN(c3ccc(F)cc3)CC2)C1 (configuration not stated)	-8%	-7%
COc1ccc(OC)c(NC(=O)CSC2=Nc3ccccc3C3=NC(CC(=O)NCCc4ccccc4)C(=O)N23)c1 (configuration not stated)	-13%	-10%
NC(=O)CS(=O)(=O)c1nc2ccccc2n1Cc1ccccc1F	-2%	1%
Cc1ccc(S(=O)(=O)N2CCOCC2)cc1C(=O)NC1=NCCS1	-2%	-4%
c1ccc2c(c1)CNc1ccccc1C2	-3%	-5%
O=C(NCCc1ccc(Cl)cc1)C(=O)NCC(c1cccs1)S(=O)(=O)c1ccccc1 (configuration not stated)	-5%	1%
COC(=O)C1=CN(C)C=C(C(=O)OC)C1c1ccccc1Cl	-5%	-6%
CN(CC(O)COc1ccc(S(=O)(=O)N2CCOCC2)cc1)C1CCCCC1 (configuration not stated)	2%	.
COc1cc(C(=O)NCC(=O)NCCSc2ccc(Br)cc2)cc(OC)c1OC	9%	-8%
CCOC(=O)Cc1csc(NC(=O)CSc2nnc(-c3cccnc3)n2Cc2ccco2)n1	-8%	0%
O=C(C[n+]1ccccc1)c1ccc(-c2ccccc2)cc1	-2%	-2%
CC1=C(C(=O)NC(C)c2ccccc2)C2(CCC(C)CC2)OC1=O (configuration not stated)	-7%	-7%
Cc1cc(C)c2c(N=CN(C)C)c(C(=O)N3CCN(c4ncccn4)CC3)sc2n1	-3%	-4%
O=C(COC(=O)/C=C/c1ccccc1Cl)NCc1ccccc1	3%	0%
N/C(=N\OC(=O)COc1ccc([N+](=O)[O-])cc1)c1cccnc1	-1%	-3%

# Look-ups from the list.
# For FEN1 inhibitor, `O=C(COC(=O)/C=C/c1ccccc1Cl)NCc1ccccc1` is listed with 3%
# For FEN1 inhibitor, `N/C(=N\OC(=O)COc1ccc([N+](=O)[O-])cc1)c1cccnc1` is listed with -1%

# Continuation.
SMILES	FEN1 inhibitor	GCN5L2 inh
Cc1ccc(N(CC(O)CN2CCCC2)S(=O)(=O)c2ccccc2)cc1 (configuration not stated)	-3%	-16%
Cc1cc(C)cc(NS(=O)(=O)c2c(C)nc3scc(C)n3c2=O)c1	16%	0%
CCOC(=O)NC(=S)Nc1ccc(OC)cc1	-1%	-7%
CCOC(=O)C1CCCN(Cc2cc(=O)oc3cc(C)c(C(C)C)cc23)C1 (configuration not stated)	-11%	-7%
Cc1ccc(-c2cn3cc([N+](=O)[O-])ccc3n2)cc1	-7%	-5%
CCCCCc1ccc(C(=O)CCC(=O)OCC(=O)N(CC)c2c(N)n(Cc3ccccc3)c(=O)[nH]c2=O)cc1	-2%	-3%
Cc1sc(NC(=O)c2cc3ccccc3oc2=O)c(C(=O)OC(C)C)c1-c1ccccc1	-2%	-18%
CCc1nnc(NC(=O)CCC(=O)NCc2ccc(OC)cc2)s1	8%	-12%
COc1ccc(C)cc1NC(=O)CN1C(=O)COc2ccc(S(=O)(=O)N3CCC(C)CC3)cc21	8%&-2%	0%&-13%
O=C1Nc2ccc(S(=O)(=O)N3CCCC3C(=O)O)c3cccc1c23 (configuration not stated)	6%	-6%
O=C(Nc1ccccc1)c1ccc(-n2cnnn2)cc1	-14%	0%
COC(=O)CCCC1=CC2=CC(=O)C(C)(OC(=O)c3cccs3)C(=O)C2=CN1CC1CC1 (configuration not stated)	-15%	1%
Cc1cc2cc(CN3C(=O)c4ccccc4C3=O)ccc2[nH]1	-10%	-1%
O=C1c2ccccc2NC2(CCCC2)N1N=C1CCCC1	-11%	-5%
C[C@@H]1C[C@@H]2[C@H]3CCC4=CC(=O)C=C[C@]4(C)[C@]3(F)[C@@H](O)C[C@]2(C)[C@@]1(O)C(=O)CO	.	8%[21.4 µM]
CCN1C(=O)[C@@H]2[C@@H](c3ccc(-c4ccc(C(C)=O)cc4)cc3)N3CCC[C@@]3(C(=O)OC)[C@@H]2C1=O	-2%	1%
COCCNC(=O)C(c1ccccc1F)N(C(=O)C(=O)NC1CCCC1)C1CCCCC1 (configuration not stated)	20%	1%
CN(C)S(=O)(=O)c1ccc(NC(=O)CN2CCC(Cc3ccccc3)CC2)cc1	-15%	-3%
COc1ccc(Cn2c(C(=O)O)c(CNCCc3cccs3)c3ccc(OC)cc32)cc1	8%	-1%
CS(=O)(=O)NCCCCNc1ccc(C(F)(F)F)cc1[N+](=O)[O-]	-9%	2%
COc1ccc(-c2nsc3c(N4CCCCC4C)ncnc23)cc1 (configuration not stated)	10%	2%
CCOC(=O)c1[nH]cnc1C(=O)Nc1cccc(OC)c1	-9%&21%	26%&-4%
Cc1c(C(=O)N2CC3(CC(c4cccc(NC(=O)CC(c5ccccc5)c5ccccc5)c4)=NO3)C[C@@H]2C(N)=O)cc([N+](=O)[O-])cc1[N+](=O)[O-] (some centres not stated)	7%	-11%
O=c1cc(CSc2nc3cc(Cl)ccc3o2)nc2sccn12	15%	12%
CSCC[C@H](NC(=O)c1ccc2ccccc2c1)C(=O)N1CCC2(CC1)NCCc1[nH]cnc12	-7%	2%
CC(=O)c1cccc(N(CC(=O)NC2CCCC2)C(=O)c2ccc(C)s2)c1	10%	-2%
Cc1cc(C(=O)COC(=O)c2n[nH]c3ccccc23)c(C)n1C	-11%	-6%
Cn1c(Cn2c(=O)sc3ccccc32)nnc1SCc1ccccn1	2%	-5%
COc1ccc([N+](=O)[O-])cc1NS(=O)(=O)Cc1ccccc1	9%	-21%
CCOC(=O)CSc1ccc(S(=O)(=O)N(C)C2CCCCC2)cc1[N+](=O)[O-]	0%	-6%
O=C(COC(=O)CCc1ccc(S(=O)(=O)N2CCOCC2)cc1)Nc1ccccc1[N+](=O)[O-]	-5%	-10%
CC1=CC(C)(C)N2C(=O)C3(C(C#N)=C(N)OC4=C3C(=O)CC(C)(C)C4)c3cc(C)cc1c32 (configuration not stated)	-8%	0%
O=C1CSc2ccc(S(=O)(=O)N3CCN(c4ccccc4)CC3)cc2N1	6%	1%
O=C(Cc1ccc(Cl)cc1)Nc1ccc(NC(=O)c2ccccc2)cc1	1%	-10%
CC(=O)Nc1ccc(C)cc1NC(C)=O	-2%	-1%
Cc1ccc(-n2nnnc2CCl)cc1	1%	-17%
Cc1csc(SCC(=O)Nc2cc([N+](=O)[O-])ccc2F)n1	-8%	-5%
O=S(=O)(NCCOCC(F)(F)F)c1ccc2oc3ccccc3c2c1	-21%	-15%
CCC(=O)N1CCc2cc(Br)cc(S(=O)(=O)CCC(=O)NCc3cccc(OC)c3)c21	3%	1%
Cc1cc(Cl)ccc1NC(=O)CSc1nnc(-c2ccncc2)n1Cc1ccco1	-16%	-6%

# Only part of the results is shown, and most or all hits are left out here.
